Compound activity: PubChem BioAssay, National Center for Advancing Translational Sciences (NCATS)
PINK1 modulator = PINK1 expression modulation. Potency, µM (top dose mostly 76.6 µM), for inactives: at the highest dose activation (PINK1 increase), usual class: activators. PINK1 immunofluorescence, high-content cytometry, 24 h. hit rate 0.2% among 410,000; active = well fitted activation curve with a large enough effect; inconclusive = small, poorly fitted or top-dose-only effect; inactive = flat fitted curve, though single readings scatter; cell line not stated here;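 also: potency is read from the fitted curve at half-maximal effect; % of control where 0% means no effect; nearly all actives have a fitted effect of over 65% in size; a mitochondrial uncoupler was the plate control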
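Cells are seeded, rested 12 hours, then given compound at five concentrations or DMSO for 24 hours. After fixation, blocking and antibody staining, PINK1 amount and mitochondrial localization are scored; CCCP serves as control.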
D2 agonist = human D2 receptor agonism in beta-arrestin assay; P14416; DiscoveRx PathHunter D2 beta-arrestin, luminescence, 90 min; 100% = 57 uM dopamine signal; activation, % (concentration not given with the values); hit rate 0.084% among 360,000; AID 624465; in the data active = activation above about 40%; inconclusive = about 15% to 40%; inactive = below about 15%; also: compound concentration not given in the record; the text of the record calls up to 30% inactive
Target sequence (P14416 whole entry, looked up): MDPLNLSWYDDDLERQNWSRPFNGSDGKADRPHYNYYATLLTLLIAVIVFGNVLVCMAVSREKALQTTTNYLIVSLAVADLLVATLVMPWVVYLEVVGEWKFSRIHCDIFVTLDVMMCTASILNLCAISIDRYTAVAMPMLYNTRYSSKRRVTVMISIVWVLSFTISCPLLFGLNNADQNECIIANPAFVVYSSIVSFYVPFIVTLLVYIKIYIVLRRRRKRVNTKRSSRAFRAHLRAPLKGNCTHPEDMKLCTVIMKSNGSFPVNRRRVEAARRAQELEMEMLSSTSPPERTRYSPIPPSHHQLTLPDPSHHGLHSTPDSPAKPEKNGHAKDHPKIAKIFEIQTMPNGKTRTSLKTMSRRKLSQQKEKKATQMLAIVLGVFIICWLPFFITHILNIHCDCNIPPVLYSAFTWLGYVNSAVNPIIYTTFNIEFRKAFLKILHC
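Agonist mode: compounds alone added to overnight-plated D2 PathHunter cells for 90 min at 37 C, with 57 uM final dopamine (EC100) defining full response. Beta-arrestin recruitment detected by chemiluminescent reagent, read after 1 h at ambient temperature.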
gsp agonist = activates gsp, the McCune-Albright syndrome mutation; Potency, µM (series often up to 76.9 µM), inactives show at the top dose activation (cAMP increase), most hits filed as activators; hit rate 0.13% among 340,000; AID 624287; gsp mutant cells, cAMP HTRF, 30 min; control for the full effect not named in the record; active = well fitted activation curve with a large enough effect; inconclusive = small, poorly fitted or top-dose-only effect, or another doubt; inactive = no such curve, though single readings can be large or run the other way; cell line not stated here;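 also: phosphodiesterase inhibitor Ro 20-1724 added with compounds to block cAMP breakdown; potency is read from the fitted curve at half-maximal effect; nearly all actives have a fitted effect of over 60% in size; about a fifth of the inactives were tested at one dose only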
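Cells stably selected in G418 were plated at 2000/well, grown 16-24 hr, then given compounds in DMSO with the PDE inhibitor […] (300 uM solution added) for 30 min at 37C; cAMP was read by HTRF.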
Sfp inh = inhibitors of Bacillus subtilis Sfp phosphopantetheinyl transferase; Q9F4F7; Biochemical Sfp PPTase activity, qHTS; Potency, µM, for inactives: max response, negative = inhibition, usual class: inhibitors; hit rate 3.5% among 310,000; active = well fitted inhibition curve with a large enough effect; inconclusive = small, poorly fitted or top-dose-only effect, or another doubt; inactive = no such curve, though single readings can be large or run the other way;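 also: the enzyme is Sfp with the accession as filed and its product quenches rhodamine fluorescence; potency is read from the fitted curve at half-maximal effect; 0% = enzyme reaction without inhibitor and -100% = no enzyme wells; top concentration of the series not given in the record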
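After 15 min at room temperature with compound, 15 nM Sfp received 5 uM rhodamine-CoA plus 12.5 uM BHQ-2-ybbR (50 mM Hepes pH 7.6, 10 mM MgCl2). Rate came from the fluorescence difference over 30 min, ex 525/em 598 nm.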
ClpP mod = qHTS Assay for Activators of ClpP; purified B. subtilis ClpP, FRET peptide cleavage, 20 min; hit rate 1.9% among 340,000; AID 651965, 2013; Potency, µM (highest dose often 57.5 µM), without a hit: top-dose activity change, negative = active; ATP-dependent Clp protease proteolytic subunit (Bacillus subtilis (strain 168)), P80244; active = well fitted falling curve with a large enough effect; inconclusive = small, poorly fitted or top-dose-only effect; inactive = no such curve, though single readings can be large or run the other way; also: potency is read from the fitted curve at half-maximal effect; the source files actives as falling curves though it sought activators and does not explain the sign; nearly all actives have a fitted effect of over 65% in size; many hits overshoot -100%
Target sequence (P80244 whole entry, looked up): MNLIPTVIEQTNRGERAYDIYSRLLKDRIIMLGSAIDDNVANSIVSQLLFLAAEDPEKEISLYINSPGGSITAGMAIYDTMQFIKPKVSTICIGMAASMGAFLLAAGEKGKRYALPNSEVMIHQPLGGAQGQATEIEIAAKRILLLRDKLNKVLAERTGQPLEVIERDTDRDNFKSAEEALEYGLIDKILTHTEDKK
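Buffer: 100 mM Tris/HCl pH8, 100 mM KCl, 0.05% low protease BSA, 2.5% glycerol, 0.01% Tween-20. ClpP 10 microg/mL final; 20 min RT; delta FRET normalized to ADEP and DMSO controls.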
Menin-MLL FL inh = menin-MLL binding inhibition, fluorescein peptide; AID 1766; FP activity change, % at 61.4 µM; Fluorescence polarization, fluorescein-MLL peptide displacement from menin; 290,000 tested, under 10 active; inconclusive = falling polarisation curve, or a change in total fluorescence; inactive = total fluorescence flat and polarisation flat or rising; no compound was filed as active; the % refers to the polarisation; negative = inhibition;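 also: % of control where 0% means no effect; inhibitors lower the polarisation; unlabelled MLL peptide was the positive control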
gsp antag = antagonizes gsp, the McCune-Albright syndrome mutation | gsp-mutant cells, cAMP HTRF, 30 min; control for the full effect not named in the record | Potency, µM (titrated, usually from 76.9 µM), inactives show at the top dose activity change, negative = inhibition, most hits filed as inhibitors | hit rate 0.4% among 340,000; active = falling curve of any shape with a large fitted effect; inconclusive = falling curve, mostly with a smaller effect; inactive = flat or rising curve; cell line not stated here;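 also: intracellular cAMP measured with PDE inhibitor Ro 20-1724 present during compound exposure; potency is read from the fitted curve at half-maximal effect; % is scaled to controls: 0 for no effect and ±100 for the full control effect; nearly all actives have a fitted effect of over 65% in size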
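G418-selected cells were plated in DMEM/10% FBS for 16-24 h at 37C, then treated with compounds plus the PDE inhibitor […] (300 uM solution added) for 30 min at 37C. Intracellular cAMP was measured by HTRF after 30 min lysis at room temperature.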
* = called active by the depositor; ? = inconclusive; . = no result given; [ ] = dose if it differs, or a comment.

SMILES	PINK1 modulator	D2 agonist	gsp agonist	Sfp inh	ClpP mod	Menin-MLL FL inh	gsp antag
Cc1ccc(S(=O)(=O)NCCCCCC(=O)Nc2c(C)n(C)n(-c3ccccc3)c2=O)cc1	1.3%	-4.8	-117%[inhibitor]	11%	0.9%	0.3	10%
CCOC(=S)SCC(=O)Nc1ncc(C)s1	4.0%	1.3	7%[15.4 µM]	16µM*	.	-0.1	-4%
CCc1nc2c(OCCn3cccc3)cccn2c1N(C)C(=O)c1ccco1	1.3%	-3.4	.	.	-1.1%	.	.
C[C@H](O)CNC(=O)c1[nH]cnc1C(=O)Nc1cccc(Cl)c1	4.1%	-6.7	-9%	.	-16%	.	.
O=C(COc1ccc2ccccc2c1)Nc1cccnc1Cl	0.8%	-1.8	?	14%	.	-0.7	11%
CCCCN(C)CCNC(=O)CCNC(=O)Cn1ccc2ccccc2c1=O	0.1%	-4.8	3%	20%	-13%	4.4	7%
CCOC(=O)c1cnc(-n2nc(C)cc2C)nc1NNc1nc(C)cc(C)n1	-0.1%	-5.7	11%	14%	-1.2%	5.6	-8%
COc1ccc(NCc2nnc(SCC(=O)Nc3ccccc3OC)o2)cc1	-3.3%[38.3 µM]	-2.2	-1%	-9%	0.1%	0.8	-2%
Brc1ccc(-c2noc3c2-c2nc(-c4ccccc4)sc2CC3)cc1	-0.3%	-0.1	-10%	.	?	.	3%
CCOCCCn1c(NN)nc2ccccc2c1=O	3.3%	-6.8	6%	2%	-3.4%	2.7	-9%
CCOc1ccc(OCCC(=O)OC(C)C(=O)Nc2ccc(Cl)cn2)cc1 (stereo not drawn)	1.9%	4.5	-4%	.	-6.4%	.	-6%
O=C(NC1CCCCC1)c1ccc(NS(=O)(=O)c2cccc3cccnc23)cc1	-0.3%	2.9	7%	5%	1.9%	?	-10%
Cc1sc2ncnc(NCCCn3ccnc3)c2c1C	1.2%	-0.2	?	16%	-1.0%	-1.6	16%
Cc1ccc(C(=O)OC(C)CN2C(C)CCCC2C)cc1 (stereo not drawn)	-0.4%	-0.7	21%[15.4 µM]	0%	.	-0.1	9%
CCCS(=O)(=O)c1nc(S(=O)(=O)c2ccc(C)cc2)c(N2CCN(CC)CC2)s1	0.2%	-5.3	?	4%	-1.5%	-3.3	14%
CN(C(=O)c1ccc2nc(N)sc2c1)c1ccccc1	-0.4%	5.0	-5%	10%	.	0.8	6%
Cc1ccc(CC(CC(=O)NCCc2ccc3c(c2)OCO3)C(=O)O)cc1 (stereo not drawn)	.	-2.2	2%	4%	-1.5%	4.0	-3%
COc1cc(NC(=O)C2=C(C)OCCS2)c(Cl)cc1C(=O)NCCCN1CCCC(C)C1 (stereo not drawn)	-0.1%	1.3	-5%	.	-0.6%	.	.
O=C(CC(NC(=O)OCc1ccccc1)c1nn[nH]n1)OCc1ccccc1 (stereo not drawn)	1.3%	-4.5	-2%	.	-1.9%	.	.
CCSc1nnc(Cc2cc(=O)[nH]c(=O)[nH]2)n1-c1ccc(Cl)cc1	-0.3%	-1.9	-75%	5%	0.1%	1.7	10%
O=C1CSCC(=O)N1Cc1ccc(Cl)cc1Cl	3.0%	-0.5	-14%	0%	-0.3%	-8.3	-7%
COc1cccc(C2=NOC(C(=O)NCC3CCCO3)C2)c1 (stereo not drawn)	6.2%[38.3 µM]	-2.3	-41%[inhibitor]	19%	-2.4%	0.8	12%
Cc1cc(-c2ccc(C)c(S(=O)(=O)NCCCN3CCCCCC3)c2)on1	0.3%	-4.8	0%	1%	-0.7%	.	9%
C=C(C)C(=O)N1CC2(CC(c3cccc(NC(=O)/C(C)=C\C)c3)=NO2)C[C@H]1C(N)=O (stereo partly drawn)	-0.3%	-3.5	.	2%	-5.6%	2.9	0%
CCc1nc2ccc(C(=O)NCc3ccccc3OC)cn2c1N(C)Cc1ccc(N(C)C)cc1	3.0%	8.4	.	.	-1.7%	.	.
O=c1[nH]c(SCc2ccc(Cl)cc2)nc2c1CCC2	0.5%	4.2	0%	10%	0.2%	-0.3	-7%
COc1ccc(C2CC(c3ccc4ccccc4c3OC(C)=O)=NN2C(C)=O)cc1 (stereo not drawn)	3.4%	1.4	23%	-2%	.	2.6	?
Cc1sc(NC(=O)CCCCC(=O)Nc2sc(C)c(C)c2C(=O)O)c(C(=O)O)c1C	0.4%	-2.5	3%	.	.	.	12%
COC(=O)C1=C(C(=O)OC)[C@@H]2Nc3ccccc3[C@@]23C[C@@H](C(=O)OC)N(C(=O)NC2CCCCC2)C3=N1	-0.6%	1.1	-44%[inhibitor]	.	-3.1%	.	6%
Nc1ccc2c(c1)C(=O)Cc1ccccc1S2	2.0%	-18	-2%[15.4 µM]	2%	1.2%	4.9	5%
COc1ccc(C(=O)CCC(=O)N2CCN(c3ccc(N4CCOCC4)nn3)CC2)cc1	4.1%	-0.5	-11%	11%	-28%	-2.0	-10%
O=C(Nc1cccc(C(=O)N2CCCCC2)c1)c1ccccc1Br	-0.4%	-3.4	?	11%	0.3%	.	-2%
CCCCOc1ccccc1C1C(C(=O)OC)=CN(CC)C=C1C(=O)OC	5.2%	-1.5	4%	1%	14µM*	0.3	-16%
O=C(Nc1nnc(-c2ccc3c(c2)OCCO3)o1)C1CCCCC1	4.6%	2.0	11%[15.4 µM]	6%	.	-2.5	-15%
CC(C)(Oc1ccc(CCNC(=O)c2ccc(-c3ccc(Cl)cc3)o2)cc1)C(=O)O	0.2%	8.4	9%[15.4 µM]	-2%	.	3.2	-26%
CCN(C(=O)COC(=O)c1ccc(Cl)c(N)c1)C1CCS(=O)(=O)C1 (stereo not drawn)	1.4%	-4.7	1%	4%	-26%	1.8	9%
Cc1ccc(O)c(C(=O)CC(=O)c2cccc(F)c2)c1	16%	-1.9	25%	20%	0.4%	2.1	-16%
COc1ccc2sc(-c3ccc(N(C)C)cc3)c(-c3ccc4cc[nH]c4c3)c2c1	2.5%	2.3	.	.	4.4%	.	6%
CC(C)C[C@H](NC(=O)C1(c2ccccc2)CCN(C(=O)[C@H]2CSCN2C(=O)OC(C)(C)C)CC1)C(=O)O	0.7%	-3.0	?	27%	-5.0%	-0.8	1%
CCn1c(CCCCc2n[nH]c(=S)n2CC)n[nH]c1=S	1.8%	-8.2	1%	-28%	-4.6%	4.8	4%
COc1ccccc1/C=C/CN1CCCC(CO)(CCc2ccccc2)C1 (stereo not drawn)	17%	3.6	-56%[inhibitor]	11%	.	5.7	9%
O=C(N/N=C/c1ccc(O)c(O)c1)c1ccc(-n2cnnn2)cc1	2.1%	1.2	-35%[inhibitor]	.	-2.1%	.	-1%
O=C(O)CCC1=C2c3ccccc3CCN2C(=O)CC1	7.1%[38.3 µM]	-2.3	-5%	1%	-2.5%	2.3	8%
CCc1cc(CNC(=O)CCc2nnc(Cc3cccc(C)c3)o2)on1	-0.3%	1.1	16%	2%	.	-1.0	8%
Cc1cc(Br)cn2c(Cc3ccsc3)c(-c3ccco3)nc12	-0.4%	-7.5	.	.	-1.8%	.	.
CC(=O)Nc1c(-c2ccccc2)nc2cc(C)ccn12	-1.2%	-2.8	-5%[15.4 µM]	15%	0.9%	-0.7	6%
COc1cccc(C#Cc2ccc3c(c2)O[C@H](CN(C)S(=O)(=O)c2ccccc2F)[C@H](C)CN([C@H](C)CO)S3(=O)=O)c1	2.2%	-1.7	-42%	.	?	.	.
CCOC(=O)C1=C(C)NC(=O)NC1c1ccoc1 (stereo not drawn)	3.6%	-6.6	1%	15%	-2.1%	0.7	17%
CCn1c(=O)c2cc(C(=O)NCCN(C)C)sc2c2ccccc21	4.7%	-1.7	17%	11%	.	3.7	6%
CCOc1ccc(Cl)cc1C(c1c(C)[nH][nH]c1=O)c1c(C)[nH][nH]c1=O	0.0%	6.4	-85%[inhibitor]	12%	.	0.5	-16%

Next part.
SMILES	PINK1 modulator	D2 agonist	gsp agonist	Sfp inh	ClpP mod	Menin-MLL FL inh	gsp antag
CS(=O)(=O)N1CCCC(C(=O)Nc2cccc(F)c2)C1 (stereo not drawn)	2.0%	-4.4	1%	12%	.	-0.8	-1%
Cc1nc([N+](=O)[O-])c(C(=O)O)n1C	1.8%	-2.8	-1%	13%	.	-2.5	-6%
COc1cccc(Nc2nc(CC(C)=O)ns2)c1	1.2%	-0.1	-21%	-7%	0.0%	-1.1	-9%
CN(CC(=O)Nc1ccccc1Cl)C(=O)CSc1ncc(C(F)(F)F)cc1Cl	-0.5%	-1.0	-18%	9%	0.9%	5.7	-4%
CCOc1ccc(S(=O)(=O)n2c(C)nc3ccccc32)cc1	7.6%	-1.6	-5%	-4%	-1.6%	1.6	5%
COc1ccc(C(=S)N2CCCC2)cc1	-0.8%	-0.1	17%	7%	-3.1%	3.5	9%
O=C(O)/C=C/C(=O)Nc1ccc(Oc2ncnc3cc(Cl)ccc23)nc1	0.2%	-4.1	-17%	79µM*	.	2.6	6%
COc1ccc(/C=N/NC(=O)CSc2ccccc2)cc1OC	-1.2%	-0.7	-26%	-2%	-3.0%	5.2	11%
CCN(Cc1ccc(OC)c(COC)c1)CC1CCCN(CCc2cccc(OC)c2)C1 (stereo not drawn)	6.0%	-7.2	-5%	-2%	-2.2%	-2.6	8%
CN(c1ccccc1C(=O)N1CCCC1)S(C)(=O)=O	0.6%	-3.6	23%	12%	1.1%	-0.1	6%[15.4 µM]
Cc1ccc(C2=[N+]([O-])C(C)(C)CC2)cc1	0.5%	0.6	?	8%	-0.8%	9.1	-4%
CC(C)(C)OC(=O)N1CCC(CNC(=O)Nc2ccccc2)CC1	-0.9%	-1.8	2%	16%	.	1.5	2%
Cc1ccc(N(C(=O)c2csnn2)C(C(=O)NC2CCCCC2)c2cccnc2)cc1 (stereo not drawn)	-2.3%	-1.3	?	17%	.	5.8	2%
CCCCS(=O)(=O)C1CCS(=O)(=O)C1 (stereo not drawn)	1.9%	-1.1	-4%	5%	-1.0%	-0.6	8%
